Autofluor counter – compound fluorescence in toxin protease inhibitor counterscreen; AID 624483; compound autofluorescence counterscreen, microsphere flow cytometry; stronger effect = higher value; 360,000 tested, 3.1% active; fluorescence intensity (no concentration beside the values);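 active = at least 3 SD above the mean of all compounds, about 16000 in these data; inconclusive = too few beads counted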;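 note: 100 nL of 1 mM stock went into each well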
BJeLR viability – kills HRASV12-expressing BJeLR cells; BJeLR (HRASV12) viability, CellTiter-Glo ATP luminescence, 48 h; reference of the scale not given here; inhibition, % (concentration not given with the values); 300,000 tested, 0.17% active; AID 1554;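 active = replicate mean above 50%; inconclusive = above 50% but judged a plate artefact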;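 note: 50 nL library stock added to about 25 µL; numbers are from one replicate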
PrP UTR inh – suppresses PrP 5' UTR mRNA reporter expression | cell-based PrP 5' UTR mRNA reporter, plate reader | inhibition, % (concentration not given with the values) | 340,000 tested, 0.35% active | AID 488862;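 active = every replicate at 50% or more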;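 note: 0 = median of the neutral control wells; tested in H4 reporter cells; numbers are from one replicate; inactives centre near -14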
RN4220 kill – S. aureus RN4220 growth inhibition. 330,000 tested, 0.33% active. OD600, 16 h. inhibition, % (concentration not given with the values). AID 1259311;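 active = z-score of -3 or lower and OD600 up to 0.18 on both plates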;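 note: plate controls were untreated cells for no effect and reference antibiotic for full effect; stock transfer was 100 nL into about 80 µL; one replicate is shown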
ugtP null kill – growth inhibition of S. aureus ugtP deletion strain. S. aureus RN4220 ugtP deletion, OD600 growth, 16 h; some inactives read as strong as hits. growth inhibition, % (concentration not given with the values). 330,000 tested, 0.54% active. AID 1259309;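 active = z-score under -3 and OD600 up to 0.15 on both plates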;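 note: plate controls were untreated wells for no effect and antibiotic for full effect; wells of about 80 µL received 100 nL stock; the first replicate is given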
Mtb hypoxia rep – reduces hypoxia-regulated biosensor signal in M. tuberculosis | M. tuberculosis hypoxia-regulated fluorescent reporter, fluorescence | fluorescence inhibition, % (test concentration not listed) | 300,000 tested, 0.1% active;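 active = 35 to 45% if threefold the growth effect, above 45% if 1.5-fold the growth effect; inactive = the rest, general growth blockers included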;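 note: wells of about 50 µL received 100 nL stock; 0% = vehicle wells and 100% = reference inhibitor wells; whole bacteria with a GFP reporter of the hypoxia response; strong numbers were not always called active; many hits fall short of the cut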
Mtb hypoxia rep growth – second read-out of Mtb hypoxia rep, no call of its own (marks repeat the call); growth inhibition, %; measured here: M. tuberculosis growth (absorbance);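 0% = vehicle and 100% = reference antibiotic; read after six days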
* hit, by the source's call; ? = inconclusive; nt = not tested or not shown.

SMILES	Autofluor counter	BJeLR viability	PrP UTR inh	RN4220 kill	ugtP null kill	Mtb hypoxia rep	Mtb hypoxia rep growth
CCC(C)NS(=O)(=O)c1ccc(OCC(=O)NCc2ccco2)cc1 (stereo not given)	7074	-7.8	-12.4	3.3	5.5	2.9	5.7
Cc1ccc(/C=C/C(=O)OCC(=O)NCc2cccs2)o1	4065	nt	-25.4	3.6	4.1	9.6	13.5
Cc1nc(SCc2nc3ccc(Cl)cc3[nH]2)c2oc3ccccc3c2n1	3464	nt	-21.1	3.6	-22.9	0.5	12.5
C/C(=N\OC(=O)c1ccc(F)cc1)c1ccc(F)c(F)c1	3034	-7.5	-12.6	nt	nt	nt	nt
C=CCN1CC[C@]23c4c5ccc(O)c4OC2C(O)CC[C@@]3(O)[C@H]1C5 (stereo not given in full)	5329	nt	3.3	1.3	10.9	nt	nt
Cc1nc(N2CCN(C(=O)c3ccco3)CC2)c2c3c(sc2n1)CCCC3	5727	7.7	-7.0	19.0	77.7	11.3	2.2
Cc1ccccc1CSc1nnnn1-c1ccc(C(N)=O)cc1	3939	1.0	-26.4	1.2	-3.2	13.1	5.6
CCOc1ccc(C(CC(=O)O)n2cnnn2)cc1OC (stereo not given)	5049	-0.9	-30.6	2.1	0.5	7.9	-5.4
C=CCNC(=S)/N=C/c1c(O)[nH]c(=O)[nH]c1=O	2051	-7.0	-5.0	1.8	4.2	-5.1	9.7
Cc1nn(CC(C)C)c(Cl)c1C(=O)O	4481	-1.5	-22.5	4.7	6.9	-11.4	-3.5
O=C(NC(=S)Nc1ccccn1)c1ccc(-c2ccccc2)cc1	4591	7.1	-27.1	11.2	8.2	2.1	-4.9
CC1CCC(N2CCN(C(=O)COc3ccccc3)CC2)CC1 (stereo not given)	4152	-8.3	-25.9	2.3	12.6	16.1	12.8
CCOc1ccc(CN2CCN(Cc3ccsc3)C(CCO)C2)cc1CO (stereo not given)	2273	-1.7	-8.0	3.3	-0.5	4.9	6.5
COc1cc(/C=C2\SC(=O)N(CC(=O)Nc3ccc(C)cc3)C2=O)cc(Cl)c1OCC(=O)O	3333	-3.3	-15.0	nt	nt	nt	nt
COCCOC(=O)c1c(C)n(C)c2ccc(OC(=O)c3ccco3)cc12	22026*	5.6	-21.4	0.7	1.2	10.7	12.5
Cc1cc(N2C(=O)C(O)=C(C(=O)c3cc4ccccc4o3)C2c2cccc(Br)c2)no1 (stereo not given)	5426	6.7	-6.9	100.4*	100.2*	-5.6	4.3
O=C1NC(=O)N(Cc2ccccc2)C1=O	3710	4.5	-28.9	3.0	6.6	-4.0	-7.8
COc1ccc(NC(=S)NNC(=S)Nc2cccc(C(F)(F)F)c2)cc1	nt	1.2	-24.1	-4.4	-28.1	7.8	0.5
NCCc1ccn[nH]1	6002	nt	5.1	2.6	-2.1	2.7	0.8
O=C(COC(=O)Cn1[nH]c(=O)c2ccccc2c1=O)Nc1ncc(Cl)cc1Cl	?	nt	-14.0	-0.7	-5.4	-4.4	-3.0
O=C(NCCCn1ccnc1)C(=O)NCC(c1cccnc1)N1CCN(c2ccccc2)CC1 (stereo not given)	4762	-3.5	-12.3	-10.2	-5.4	3.7	16.0
CCn1c(SCC(=O)NN=Cc2ccc(C)s2)nc2ccccc21	nt	nt	nt	-0.1	10.8	10.6	0.1
O=C(NCCCN1CCOCC1)C(=O)NCc1ccccc1Cl	4348	17.1	-46.3	3.1	0.9	3.8	4.3
Cc1nn(Cc2ccccc2Cl)c(Cl)c1C(=O)OCC(=O)NCc1ccco1	11451	-6.0	-26.4	-0.3	1.5	-0.1	2.3
CCOC(=O)c1sc2cc([N+](=O)[O-])cc(SCC(=O)OC)c2c1N	10805	8.8	-28.9	5.8	0.1	4.0	16.6
COc1ccccc1C1(CCN=Cc2ccc(N(C)C)cc2)CCOC(C)(C)C1 (stereo not given)	4677	10.7	-13.8	0.4	2.7	11.6	2.1
Cc1ccc(-n2c(SCC(=O)N/N=C/c3ccccc3C(=O)O)nnc2-c2ccccc2)cc1	5404	14.0	-23.8	nt	nt	nt	nt
CCOc1cc(C(=O)N(CC)CC(=O)Nc2c(F)cccc2F)ccc1OCC(=O)N1CCOCC1	nt	nt	-18.1	1.1	-1.0	-7.8	5.4
O=C(O)CC(Cc1ccc(Cl)cc1)C(=O)Nc1cc(Cl)ccc1Cl (stereo not given)	4169	-9.5	-8.0	8.7	-6.9	-0.5	2.5
O=C(NC(=S)Nc1cccc2cnccc12)c1ccccc1	4414	2.4	-7.9	-4.4	20.4	-3.9	-7.4
COc1cc(/C=C2\SC(=S)N(CCC(=O)NCCc3ccccc3)C2=O)cc(OC)c1OC	5719	-10.0	-32.1	7.1	0.1	12.9	10.0
CC[C@@]1(C(=O)OC)N[C@H](CN(C)C(=O)c2ccc(C)cc2)[C@@H]2C(=O)N(C)C(=O)[C@@H]21	3321	nt	-6.2	1.0	0.0	-3.3	5.7
Cc1ccc(C(O)(C(=O)NNc2ccccn2)c2ccc(C)cc2)cc1	3802	2.8	-10.0	7.3	4.2	15.5	0.6
COc1ccc(OC)c(C(C)NS(=O)(=O)c2cccs2)c1 (stereo not given)	4179	nt	-6.2	8.6	-2.2	3.5	13.7
O=C(NN1CCOCC1)c1cccc(Br)c1	4451	-16.8	nt	3.8	5.3	1.4	-4.5
O=C(NCc1ccco1)c1nc(-c2ccc(F)cc2)no1	2339	-2.3	-11.1	1.0	5.9	-11.3	-6.5
Cc1cc(C)nc(SCC(=O)NN=Cc2cccs2)n1	nt	nt	nt	2.8	-0.4	9.8	4.7
CCOC(=O)Cn1c(=O)n(Cc2ccco2)c(=O)c2ccc(C(=O)NC3CCCC3)cc21	7050	-6.7	-22.7	-14.7	-3.5	-4.6	1.9
Cc1nnc(SCC(=O)Nc2ccc([N+](=O)[O-])cc2)n1CC1CCCO1 (stereo not given)	4053	2.8	-2.8	1.0	7.0	5.0	10.1
Cn1ccnc1Sc1nc2ccccc2nc1NS(=O)(=O)c1ccccc1	12787	6.1	-21.9	4.8	-2.8	1.2	-0.6
Cc1cccc(N2C(=O)CC(N3CCN(C(=O)c4ccccc4)CC3)C2=O)c1 (stereo not given)	23162*	-3.2	-2.1	3.7	4.3	-2.0	1.2
O=C(CN1CCCC1)Nc1cc(C(F)(F)F)ccc1Cl	4102	-1.1	-15.5	1.8	2.7	3.9	9.4
COC(=O)N/N=C(\CCC(=O)O)c1cccs1	4229	-3.8	-9.7	nt	nt	nt	nt
C[C@@H]1CCC(=O)N(C[C@@H](C)CSc2ccccc2)CC1	4209	-5.9	-4.5	nt	nt	nt	nt
C=CCOc1ccc(C(=O)Nc2ccccc2C(=O)NCc2cccnc2)cc1	5663	-2.1	-17.0	1.6	-0.7	3.2	11.4
COC1C=CO[C@@]2(C)Oc3c(C)c(O)c4c(O)c(c5c(nc6cc(C)ccn65)c4c3C2=O)NC(=O)C(C)=CC=CC(C)C(O)C(C)C(O)C(C)C(OC(C)=O)C1C (stereo not given in full)	nt	nt	nt	99.4*	99.4*	nt	nt
CCc1c(C)sc(NC(=O)c2cc(C(C)C)on2)c1C#N	3737	0.8	-8.3	34.7	7.7	8.1	-0.8
COc1ccccc1N1CCN(Cc2ccc(Br)o2)CC1	22305*	nt	-16.6	-0.2	6.8	5.3	1.4
NS(=O)(=O)c1ccc(NC(=O)c2cccc(Cl)c2)cc1	nt	-1.8	-13.2	3.0	6.5	-4.9	8.5
CC(=O)NN1C(=O)c2ccc(Oc3ccc([N+](=O)[O-])cc3)cc2C1=O	7128	4.8	-7.4	4.0	13.4	15.7	7.0

Continuation:
SMILES	Autofluor counter	BJeLR viability	PrP UTR inh	RN4220 kill	ugtP null kill	Mtb hypoxia rep	Mtb hypoxia rep growth
O=C(O)C1CC=CCC1C(=O)Nc1ccc(N2CCN(Cc3ccccc3)CC2)cc1 (stereo not given)	1830	-7.8	-9.3	nt	nt	nt	nt
O=c1cc(C=Cc2ccccc2)oc2c1ccc1ccccc12	nt	nt	nt	10.6	47.4	7.4	3.4
C=CC[C@H](CC(=O)N(CCO)Cc1ccccc1)C(=O)N[C@@H](COC(=O)[C@@H](CC=C)Cc1ccc(F)cc1)Cc1c[nH]c2ccccc12	2955	nt	45.2	-9.8	-26.0	0.7	0.6
CC(NC(=O)c1ccc(N(C)C)cc1)c1ccc(F)cc1 (stereo not given)	4182	1.5	-16.2	8.0	1.6	14.4	1.1
COc1ccc(OC)c(NC(=O)COC(=O)c2ccc(-n3cnnn3)cc2)c1	9542	1.3	-7.6	1.1	-3.6	-3.4	-11.6
CCCC(=O)N1CCN(Cc2nc3cc([N+](=O)[O-])ccc3n2C)CC1	2969	11.3	-29.4	1.5	12.6	-2.1	-8.2
CCCCn1c(N)c(N(CCOC)C(=O)COC(=O)CNC(=O)c2ccc(Cl)c(Cl)c2)c(=O)[nH]c1=O	3609	nt	-0.2	0.6	-0.8	-12.1	7.9
CC(=NNC(=O)c1nnn(-c2nonc2N)c1COc1ccc(F)cc1)c1ccc(Cl)cc1	nt	nt	nt	3.3	2.9	-5.7	8.3
O=Cc1[nH]c2ccccc2c1N(C(=O)CCl)c1ccccc1	4573	-3.1	-31.1	2.9	5.3	9.6	-1.0
CC(C)(C)CNC(=O)[C@]1(C)CCC[C@@]2(C)C3CC[C@@]4(C)C[C@]3(CCC21)CC4=O (stereo not given in full)	4362	nt	-12.4	10.5	0.0	19.7	10.9

Given with each value named: entries from further up.
> CC(NC(=O)c1ccc(N(C)C)cc1)c1ccc(F)cc1 (stereo not given)
  Autofluor counter: 4182; BJeLR viability: 1.5; PrP UTR inh: -16.2; RN4220 kill: 8.0; ugtP null kill: 1.6; Mtb hypoxia rep: 14.4; Mtb hypoxia rep growth: 1.1

> COc1ccc(OC)c(NC(=O)COC(=O)c2ccc(-n3cnnn3)cc2)c1
  Autofluor counter: 9542; BJeLR viability: 1.3; PrP UTR inh: -7.6; RN4220 kill: 1.1; ugtP null kill: -3.6; Mtb hypoxia rep: -3.4; Mtb hypoxia rep growth: -11.6

> CCCC(=O)N1CCN(Cc2nc3cc([N+](=O)[O-])ccc3n2C)CC1
  Autofluor counter: 2969; BJeLR viability: 11.3; PrP UTR inh: -29.4; RN4220 kill: 1.5; ugtP null kill: 12.6; Mtb hypoxia rep: -2.1; Mtb hypoxia rep growth: -8.2

> CCCCn1c(N)c(N(CCOC)C(=O)COC(=O)CNC(=O)c2ccc(Cl)c(Cl)c2)c(=O)[nH]c1=O
  Autofluor counter: 3609; BJeLR viability: nt; PrP UTR inh: -0.2; RN4220 kill: 0.6; ugtP null kill: -0.8; Mtb hypoxia rep: -12.1; Mtb hypoxia rep growth: 7.9

Following part.
SMILES	Autofluor counter	BJeLR viability	PrP UTR inh	RN4220 kill	ugtP null kill	Mtb hypoxia rep	Mtb hypoxia rep growth
CN(CCc1ccccn1)c1ccccc1	3161	nt	-20.4	4.2	6.8	11.3	2.4
O=[N+]([O-])c1ccc(NCCN2CCOCC2)c([N+](=O)[O-])c1	3775	3.0	-35.3	1.8	-0.5	13.2	8.0
O=C(CSc1nc2ccccc2c(=O)n1-c1ccccc1F)Nc1ccc2c(c1)CCC2	2760	2.7	-14.5	0.0	-9.9	5.9	-2.8
CC(OC(=O)CNS(=O)(=O)c1ccc(C#N)cc1)C(=O)Nc1cccc(C#N)c1 (stereo not given)	4955	-0.5	-17.6	-4.2	-2.3	0.0	4.4
COc1ccc(N(C)C(=O)C2CCN(S(=O)(=O)c3cccc4nonc34)CC2)cc1	5848	-7.0	-27.4	3.3	1.0	-1.8	-8.3
N#CC1(NC(=O)COc2cc(F)ccc2[N+](=O)[O-])CCCCC1	3593	nt	-21.6	-0.1	-7.9	-6.4	3.4
CCOC(=O)N1CCc2c(sc3ncn(C)c(=O)c23)C1	5770	-3.2	-6.4	4.1	6.1	4.1	6.5
COc1ccc(CC(=O)NNS(=O)(=O)c2ccccc2)cc1OC	4702	-5.0	8.0	3.3	5.9	9.0	-0.8
O=S(Cc1ccc(Cl)cc1)CC(O)COc1ccc(Cl)cc1 (stereo not given)	11522	5.3	-5.8	3.0	-12.2	7.2	15.2
N#CC(=Cc1ccc(O)c(O)c1)C(=O)c1ccc(O)c(O)c1	nt	nt	nt	29.2	-7.1	-0.5	-7.1
Cc1nc([N+](=O)[O-])c(Br)n1CC(=O)c1cccc([N+](=O)[O-])c1	4502	nt	-16.8	15.6	17.5	21.9	11.0
CCC1Sc2ccccc2N(CC(=O)NC2CCCC2)C1=O (stereo not given)	6202	-4.8	-32.3	2.1	-0.5	-5.3	-3.9
C=CCNC(=O)/C(C#N)=C/c1c(N2CCN(c3ccc(OC)cc3)CC2)nc2c(C)cccn2c1=O	3845	-3.4	-13.5	-2.9	-1.4	15.3	11.6

From PubChem BioAssay
